NPR1 antag – Natriuretic polypeptide receptor (hNpr1) antagonism - Primary qHTS; Atrial natriuretic peptide receptor 1 (Homo sapiens), P16066; HEK293 hNpr1 GloSensor cGMP, ANP-stimulated luminescence; Potency, µM (top dose mostly 46.3 µM), without a hit: at the top dose activity change, negative = inhibition, most hits filed as inhibitors; actives 1.6% (n = 76,000); AID 1347048, 2019; active = well fitted inhibition curve with a large enough effect; inconclusive = small, poorly fitted or top-dose-only effect; inactive = no such curve, though single readings can be large or run the other way;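 also: nearly all actives have a fitted effect of over 60% in size; nearly all hits also lower the signal before the agonist is added; a reference antagonist and vehicle were the controls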
Target sequence (P16066 whole entry, looked up): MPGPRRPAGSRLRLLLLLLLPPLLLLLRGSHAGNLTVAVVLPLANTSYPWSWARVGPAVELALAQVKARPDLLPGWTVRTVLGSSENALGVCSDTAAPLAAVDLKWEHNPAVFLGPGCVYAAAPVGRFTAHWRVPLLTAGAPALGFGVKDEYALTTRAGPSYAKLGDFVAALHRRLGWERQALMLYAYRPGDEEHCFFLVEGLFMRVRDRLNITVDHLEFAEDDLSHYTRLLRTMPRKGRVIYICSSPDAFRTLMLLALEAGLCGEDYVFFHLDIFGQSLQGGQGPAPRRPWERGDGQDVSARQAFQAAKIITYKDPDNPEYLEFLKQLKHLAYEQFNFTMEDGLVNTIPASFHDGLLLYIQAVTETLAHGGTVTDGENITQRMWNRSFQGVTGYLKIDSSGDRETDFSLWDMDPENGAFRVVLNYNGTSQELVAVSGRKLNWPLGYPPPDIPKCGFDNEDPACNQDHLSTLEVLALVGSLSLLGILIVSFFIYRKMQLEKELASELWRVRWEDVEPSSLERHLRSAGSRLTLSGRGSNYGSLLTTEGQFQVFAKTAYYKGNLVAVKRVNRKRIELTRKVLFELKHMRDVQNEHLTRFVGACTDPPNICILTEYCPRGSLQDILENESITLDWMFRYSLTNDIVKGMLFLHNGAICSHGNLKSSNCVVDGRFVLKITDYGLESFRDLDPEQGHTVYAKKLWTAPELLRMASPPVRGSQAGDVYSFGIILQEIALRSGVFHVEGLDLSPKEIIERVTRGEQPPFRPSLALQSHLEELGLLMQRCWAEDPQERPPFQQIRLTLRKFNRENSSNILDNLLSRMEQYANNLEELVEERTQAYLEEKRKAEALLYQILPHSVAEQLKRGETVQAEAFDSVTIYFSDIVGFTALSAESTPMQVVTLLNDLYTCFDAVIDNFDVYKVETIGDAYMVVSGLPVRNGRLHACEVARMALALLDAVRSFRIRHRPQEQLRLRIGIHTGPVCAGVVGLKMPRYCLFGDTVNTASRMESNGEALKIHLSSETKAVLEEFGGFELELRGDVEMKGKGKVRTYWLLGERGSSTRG
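HEK293 cells stably expressing human Npr1 and cGMP GloSensor pGS-40F, loaded 2 h with 2% GloSensor reagent, given compound 30 min at room temperature. Luminescence read before and 20 min after 0.1 nM hNppA.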
Starred values were filed as active, the others as inactive; ? = inconclusive; [ ] = dose if it differs, or a comment. % is scaled to controls: 0 for no effect and ±100 for the full control effect; potency is read from the fitted curve at half-maximal effect.

NPR1 antag | SMILES
3% | O=C(Nc1ccccc1)N1CCCCC1c1nc(-c2cnccn2)n[nH]1 (centres undefined)
0% | O=C(NCCC1=CCCCC1)c1cn(CCCc2ccccc2)nn1
-8% | COc1cccc(C(=O)N2CCC(N3C(=O)CCC3C(=O)NCc3ccccc3)CC2)c1 (centres undefined)
-1%[70.6 µM] | CC(=O)Nc1ccc(NC[C@@H]2C=C(C)[C@H](Cc3nnc(C)o3)C[C@H]2C(C)C)cn1
-8% | CC(C)NC(=O)C1Cn2cccc2C(=O)N1Cc1ccccc1 (centres undefined)
4% | CCC(=O)N1C[C@@H]2CCCN3CCC[C@@H]([C@H]23)[C@H]1CCCC(=O)Nc1ccccc1
0% | O=C(C1CCCCn2nnnc21)N1CCc2nc(-c3cccnc3)[nH]c2C1 (centres undefined)
5% | COc1cc(Cl)ccc1C(=O)N1CCC2(CC1)CC(O)CCO2 (centres undefined)
? | Cn1cc(-c2cnc3[nH]cc(CC(=O)Nc4cccc(OC(F)(F)F)c4)c3c2)cn1
1% | CC(C)CCN1CCc2[nH]nc(C(=O)N(C)Cc3cccnc3)c2C1
11% | Cn1cc(CCC(=O)N2CCN(Cc3ccccc3)CC(O)C2)cn1 (centres undefined)
9% | CC(=O)Nc1ccc(CN2Cc3[nH]cnc3C[C@H]2C(=O)NCc2ccc(C(F)(F)F)cc2)cc1
-1% | COCCCNC(=O)C1CC(=O)N(c2n[nH]c3cc(Br)ccc23)C1 (centres undefined)
1% | O=C(COc1cccc(-c2nnc3n2CCCC3)c1)NCc1ccc(F)cc1
1%[70.6 µM] | CC(C)C[C@@H]1N[C@H](C(=O)NCCN(C)C)Cc2c[nH]c3cccc1c23
-17% | O=C(COc1ccc(Cl)cc1)N1CCN(c2cc(-c3cccs3)[nH]n2)CC1
3%[70.6 µM] | COCC(=O)N[C@H]1C[C@H]2C(=O)Nc3ccc(-c4cccs4)cc3C(=O)N2C1
5% | COC1CCC12CCN(C(=O)COc1ccccc1)CC2 (centres undefined)
3% | CCC(CC)C(=O)NCCc1noc(C)n1
2% | O=C(NC1CCN(c2ccc(F)cc2)C1=O)c1ccccc1Cl (centres undefined)
-5% | Cc1ccc(-c2cn3c(n2)N(C(=O)C2CCCO2)CCC3)cc1 (centres undefined)
2%[70.6 µM] | Cn1cccc1C(=O)NC[C@H]1O[C@@H](CO)[C@@H](O)[C@H]1N1CCOCC1
1% | COCCNC(=O)[C@H]1C[C@H](Oc2cccnc2)CN1C(=O)NC1CCCC1
4% | COCCn1nc2n(c1=O)CCN(C(=O)c1ccc(OC)cc1OC)CC2
0% | C=CCC1(CO)CCCN(Cc2nc(C)cc(-c3ccccc3)n2)C1 (centres undefined)
-12% | O=C(N[C@@H]1CN(c2ccncn2)C[C@H]1CO)c1cccc(Cl)c1
-11% | COCCNc1ncnc2c1CN(c1ccc(Cl)cc1)C(=O)CN2C
4%[70.6 µM] | C=CCNC(=O)[C@@H]1Cc2c[nH]c3cccc(c23)[C@H](CC(C)C)N1
3% | CCOc1ccccc1-c1noc(-c2nnn3c2COC(c2ccc(OC)cc2)C3)n1 (centres undefined)
3%[70.6 µM] | CN(C)Cc1cc(CC2(NCc3ccc(F)cc3)COC2)no1

Next structures
NPR1 antag | SMILES
-13% | CC(C)c1ccc(C(=O)N2CCC(Oc3ccc(C(=O)N(C)C)cn3)CC2)cc1
3%[70.6 µM] | CN1C[C@@H](NC(=O)C2CCCCC2)C[C@H]1c1nc(-c2ccc3c(c2)OCO3)no1
4% | Cc1cccc(OCCc2noc(C3CCCN3C(=O)COc3ccccc3)n2)c1 (centres undefined)
-24%[70.6 µM] | COc1ccc(OC)c(CN2CC[C@@H]3OCC(=O)N(C(C)C)[C@H]3CC2)c1
1% | COc1ccc(C(=O)N2C[C@@H](Oc3ccccc3)C[C@H]2C(=O)N2CCOCC2)c(OC)n1
1% | COCC1CN(C2CCC2)CC12CCN(C(=O)c1cccc(C)c1)CC2 (centres undefined)
-1% | COCc1nncn1C1CCN(C(=O)Cc2ccccc2Cl)CC1
1% | COc1ccc(S(=O)(=O)N2CCC(Cc3nncn3C)CC2)cc1
0% | CC(C)Oc1cccc(-c2nnc(CCC(=O)NC3CCCCC3)c(=O)[nH]2)c1
0% | Cc1noc(C)c1S(=O)(=O)N1CC(N(Cc2cccnc2)CC(C)C)C1
-3% | CCOCCOC1CCN(C(=O)CCc2c[nH]c3ccccc23)CC1
-19% | O=C(Nc1ccc(-c2cccc(F)c2)cc1)C1CCCN1Cc1ccc(CO)o1 (centres undefined)
5% | O=C(C[C@H]1NC(=O)c2ccccc2NC1=O)NCCc1ccccn1
4% | Cc1cnc(C(=O)N2CCC3(CC2)CC(CO)N(C(=O)c2ccccc2)C3)cn1 (centres undefined)
10% | COc1ccc(C(=O)N2CCn3c(nnc3-c3ccc(OC)cc3)C2)cc1
-8%[70.6 µM] | CC1(c2ccccc2)N(Cc2ccc(O)cc2)C(=O)OC12CCN(CC1CC1)CC2 (centres undefined)
2% | Cc1nnc([C@@H]2CC(F)(F)CN2C(=O)c2n[nH]c3ccccc23)o1
2% | CCNC(=O)CCc1cc2ccc(C)cc2[nH]c1=O
-7% | Cc1ccccc1S(=O)(=O)N1CCCCCCNC(=O)[C@@H]2CCC[C@@H]21
0% | COc1ccc(NC(=O)c2cc3c(s2)CN(C2CCCC2)C3)c(C)c1
-1% | CC(C)(C)c1oc(C(N)=O)cc1CN1CCCC(CO)(CC2CC2)C1 (centres undefined)
14% | Cc1ccccc1N1Cc2c(NC3CCCC3)ncnc2N(C)CC1=O
1% | O=C(c1ccc2c(c1)N(C(=O)C1CC1)CC2)N1CCCC1
2% | COc1cccc(CNC(=O)Cn2ccn3nc(-c4ccc(F)cc4)c(CO)c3c2=O)c1
7% | Cc1[nH]nc(C(=O)N[C@@H]2COCC[C@@H]2OCc2ccccc2)c1Cl
-1% | O=C(NCC1CC1)C1Cn2cccc2C(=O)N1Cc1ccccc1 (centres undefined)
-1% | CC(C)N1CCC(N2CCCC2C(=O)Nc2cccc(-n3cccn3)c2)CC1 (centres undefined)
2% | CCOC(=O)CCNC(=O)N1CCCC(c2nc(-c3cnccn3)no2)CCNC(=O)CC1 (centres undefined)
1% | COCCN1CCCC2(CCN(C(=O)c3ccc(Cl)s3)C2)C1=O (centres undefined)
? | Cc1cc(=O)n(CC(=O)Nc2ccccc2C)c(N2CCc3ccccc3C2)n1

(listing goes on)
NPR1 antag | SMILES
-25%[70.6 µM] | O=C1COc2ccc(Nc3ccccc3F)nc2CN1Cc1ccccc1F
-23%[70.6 µM] | O=C(Nc1ccccc1)C1=NO[C@@H]2CN(c3ccnc(N4CCOCC4)c3)C[C@H]12
-17% | Cc1cc(C(=O)N2C[C@@H](COCC(N)=O)[C@H](c3ccncc3)C2)c(C)o1
-4% | Cc1cc(NC(=O)c2ccc3c(c2)N(C)C2CCCCCN2C3=O)ccc1F (centres undefined)
4% | O=C(NC1C[C@H]2CC[C@@H](C1)N2C(=O)c1ccc(C(F)(F)F)cc1)c1ccncc1 (some centres undefined)
0% | Cc1ccc(NC(=O)Nc2ccc(C)n(CC(=O)NC(C)(C)C)c2=O)cc1
-3% | CCN1CCN(C(=O)CCC2CCN(S(=O)(=O)c3ccccc3)CC2)CC1
1% | Cc1cc2nc3n(c(=O)c2n1CC(=O)NCc1ccccc1F)CCCCC3
-19% | CCOc1cccc(-c2nc(C(=O)Nc3ccc(F)cc3)cs2)c1
3% | COc1ccc(C(=O)NCc2nnc3ccc(-c4ccccc4)nn23)c(C)c1
-14% | CN1CCN(Cc2nnc(C(=O)N3CCC[C@@H]3c3ccc(Br)cc3)n2Cc2ccccc2)CC1
-12% | O=C(CCCc1ccccc1)N1CCC[C@H]1c1nc(-c2ccccc2)no1
-7% | Cc1c(CC(=O)N2CCOCC2)c2c(n1Cc1ccc(F)cc1)CCCC2=O
6% | CC(NC(=O)C1CCCN(c2cnc3nccnc3c2)C1)c1cccnc1 (centres undefined)
1% | N#Cc1cccc(NC(=O)N[C@H]2CO[C@H]3[C@@H]2OC[C@@H]3Nc2nccc(-c3cccs3)n2)c1
0% | O=C1CN(CC(=O)N2CCc3ncnc(N4CC=CC4)c3CC2)C(=O)N1
-8% | COCC(=O)N(C1CCOCC1)C1CCN(S(=O)(=O)c2cccc(C)c2)CC1
17%[70.6 µM] | Cc1noc(C)c1S(=O)(=O)N(C)C1CCc2ccccc21 (centres undefined)
-16% | Cc1oc2ccn(Cc3ccccc3F)c(=O)c2c1C(=O)NCC1CCCO1 (centres undefined)
2% | O=C(Nc1ccc([C@@H](O)[C@H]2COCC(=O)N2Cc2ccc(F)cc2)cc1)c1ccc2c(c1)OCO2
-2% | Cc1nc2scc(CC(=O)NCc3ccco3)n2c(=O)c1-c1cc(C)n(-c2cc(F)ccc2F)n1
2% | Cc1cnc(CN2CC3(CCCN(C(=O)c4ccc(C)s4)C3)CCC2=O)cn1 (centres undefined)
-2% | COCCOCc1nc(C2CCN(C(=O)NCc3ccc(F)cc3)CC2)no1
-2% | COCC(=O)N[C@H]1C[C@@H](CO)N(Cc2c[nH]c3ccccc23)C1
-7% | O=C(NCCc1ccncc1)C1CN(C(=O)c2ccccc2Cl)CC12CCOCC2 (centres undefined)
-1% | CCn1cnnc1-c1nn(C)c2c1CN(C(=O)CN1CCCCCC1)CC2
-16% | CS(=O)(=O)N1CCC(OC2CCN(C(=O)Nc3cccc(F)c3)CC2)CC1
8% | O=c1[nH]c(N2CCOCC2)nc2c1CCN(Cc1ccccc1Cl)CC2
-8% | O=C(Nc1cc(F)cc(C(F)(F)F)c1)N1CCC(Cn2cccn2)CC1
5% | Fc1ccccc1-c1noc(-c2nc(-c3ccc4c(c3)OCO4)no2)n1

Continued:
NPR1 antag | SMILES
1%[70.6 µM] | CC1(C)C(=O)N(CCOc2ccccc2)[C@H]2CN(C3CCOCC3)C[C@H]2[S+]1(=O)[O-]
0% | CC(C)(C)C(=O)N1CCC2(CC1)OCC(C(=O)NC1CC1)N2C(=O)c1ccc(F)cc1 (centres undefined)
-4%[70.6 µM] | COc1ccc(-c2nnc3ccc(N4CCc5ccccc5C4)nn23)nc1
-1% | CN1CCC2(CCC1=O)CN(C(=O)CCc1ccc3c(c1)OCO3)CCN2C (centres undefined)
-3% | Cc1oc2ccn(C)c(=O)c2c1C(=O)NCc1cc(F)ccc1F
4% | Fc1cccc(-n2cc(CN3CC[C@H]4CC[C@@H](C3)N4)cn2)c1
2%[70.6 µM] | Cc1ccc(C(=O)N2C[C@@H](F)[C@@H](OCc3nc4ccccc4n3C)C2)cc1
-4% | O=C(c1nccc2ccccc12)N1CCC(n2cc(-c3nc(C4CC4)no3)nn2)C1 (centres undefined)
0% | CC1CCN(c2ccc(CNC(=O)C(C)C3CCOCC3)cc2)CC1 (centres undefined)
-2% | O=C(CC1=C2CCCCC2NC1=O)Nc1ccccc1F (centres undefined)
1% | CSCC(=O)NCCC[C@H](NC(=O)[C@@H]1[C@@H](NC(=O)NC2CCCCC2)CCN1C(=O)CSC)C(N)=O
3%[70.6 µM] | COC[C@H]1C[C@@H](NS(=O)(=O)CC(C)C)[C@H](O)[C@@H]1O
3% | CC(NC(=O)c1ccc2nccn2c1)c1ccccc1-n1cccn1 (centres undefined)
-1%[70.6 µM] | COCCn1c2c(c(=O)n1-c1ccccc1)CCN(C(=O)Cc1ccc3c(c1)OCO3)C2
-21% | CSc1cccc(NC(=O)Cn2c(-c3cnccn3)nc(C)c(C)c2=O)c1
0%[70.6 µM] | CC(C)C(=O)N1CCC(Oc2cnc3c(ccn3-c3cncnc3)c2)CC1
-2% | COC(=O)[C@H](CC1CCCCC1)NC(=O)[C@@H]1C[C@@H](NC(=O)Nc2cccc(F)c2)CCN1C(=O)CCC(=O)O
-1% | COc1cccc(CN2C(=O)OC3(CCN(C(=O)C4CCOCC4)CC3)C2(C)c2cccnc2)c1 (centres undefined)
1%[70.6 µM] | CC1=C[C@@H](CN(C)C)[C@H](C(C)C)C[C@H]1Cc1nc2ncc(Cl)cc2[nH]1
13µM* | COc1ccccc1C(=O)N1CCC(n2cc(-c3nc(-c4ccccc4)no3)nn2)C1 (centres undefined)
-6% | CN1Cc2cccn2CC1CNC(=O)Nc1ccccc1 (centres undefined)

Assay outcomes (PubChem BioAssay)

These rows are one share of the data; rates above refer to the full screens.
